KCNQ2 block: KCNQ2 potassium channel inhibitors, primary screen, cell-based, CHO-K1, FluxOR thallium flux, B-score (AID 2156); O88943; 20 min; active compounds read low; only compounds with negative scores are shown here; some inactives read as strong as hits; B-score at 10 µM; 310,000 tested, 1.1% active;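 active means fluorescence ratio B-score at most minus 3 library SDs, with starting brightness B-score within 2 library SDs, cut at about -5.5 in these data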
Target sequence (O88943 whole entry, looked up): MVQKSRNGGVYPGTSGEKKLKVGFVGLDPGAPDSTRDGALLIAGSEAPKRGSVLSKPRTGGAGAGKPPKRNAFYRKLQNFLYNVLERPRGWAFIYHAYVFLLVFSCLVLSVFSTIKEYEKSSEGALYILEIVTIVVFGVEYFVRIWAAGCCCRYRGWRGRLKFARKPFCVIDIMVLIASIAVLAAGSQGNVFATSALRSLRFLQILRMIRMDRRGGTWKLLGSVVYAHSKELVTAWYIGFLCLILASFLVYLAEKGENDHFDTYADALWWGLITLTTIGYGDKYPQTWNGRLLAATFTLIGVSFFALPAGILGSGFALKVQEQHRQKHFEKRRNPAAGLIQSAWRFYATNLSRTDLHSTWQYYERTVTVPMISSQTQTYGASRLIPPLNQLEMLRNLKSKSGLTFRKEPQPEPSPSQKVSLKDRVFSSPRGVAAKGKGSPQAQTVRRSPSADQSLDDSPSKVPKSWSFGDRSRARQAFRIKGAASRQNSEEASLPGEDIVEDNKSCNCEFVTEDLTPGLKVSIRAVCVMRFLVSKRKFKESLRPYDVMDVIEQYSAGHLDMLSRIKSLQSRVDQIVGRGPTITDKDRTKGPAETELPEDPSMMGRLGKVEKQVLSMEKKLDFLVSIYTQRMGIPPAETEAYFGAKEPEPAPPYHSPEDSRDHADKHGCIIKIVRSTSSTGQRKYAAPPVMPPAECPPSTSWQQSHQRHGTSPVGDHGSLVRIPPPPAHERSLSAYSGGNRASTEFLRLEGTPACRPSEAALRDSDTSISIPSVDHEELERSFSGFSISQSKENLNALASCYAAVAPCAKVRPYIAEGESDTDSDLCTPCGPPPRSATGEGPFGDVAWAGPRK
KCNQ2 block baseline: second read-out of KCNQ2 block, no call of its own (marks repeat the call); B-score; measured here: initial fluorescence intensity artifact check;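 brightness before thallium and not channel activity; 0 = typical well and far values either way flag optical interference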
* = called active by the depositor; i = inactive. A portion of the library; count on the stated rates, not on these rows.

SMILES	KCNQ2 block	KCNQ2 block baseline
O=C(COc1ccccc1)Nc1nnc(-c2ccc3c(c2)CCCC3)o1	i	1.3
C/C(=N\Nc1ccccn1)c1ccc(OC(F)F)cc1	i	0.01
CCOC(=O)N1CCC(Nc2c(-c3ccccc3)c(=O)c2=O)CC1	i	-0.27
O=C(NNS(=O)(=O)c1ccc(F)cc1)c1cnccn1	i	-2.1
COc1cc([N+](=O)[O-])ccc1NC(=O)C[n+]1ccccc1	i	0.58
COc1cccc(C(=O)NCCS(=O)(=O)N2CCc3ccccc3C2)c1	i	-0.12
CCOC(=O)c1ccc(NC(=O)CN2C(=O)C(CC)SC(CC)C2=O)cc1 (stereo not drawn)	i	-1.1
Cc1cccn2c(=O)c3cc(C(=O)N4CC(C)CC(C)C4)sc3nc12 (stereo not drawn)	i	0.08
CCOC(=O)C(C)Sc1nc(-c2ccccc2)nc2ccccc12 (stereo not drawn)	i	-1.5
O=C(/C=C\c1cn(-c2ccccc2)nc1-c1ccc2c(c1)OCCO2)N1CCOCC1	i	-0.9
CC(C)N(C(=O)CSc1nnc(-c2cc3ccccc3cc2O)n1Cc1ccco1)C(C)C	i	1.3
CCOCCCNC(=S)N1CCCN(c2nc3c(C)c(C)ccc3cc2C#N)CC1	i	0.76
COc1ccc(N/C=C/C(=O)C(C)(C)C)cc1	i	0.93
COC(=O)Nc1c(C(=O)OC)cc(OC)c(OC)c1OC	i	-2
COc1ccc(CCC(=O)OCC(=O)c2cccc(OC)c2)cc1	i	3.7
CCCCn1c(N)c(N(CCC(C)C)C(=O)c2cc(CC)c(C)s2)c(=O)[nH]c1=O	i	0.74
Cc1ccc(S(=O)(=O)CCC(=O)OCC(=O)Nc2cc(C)on2)cc1	i	1.2
CCn1nccc1C(=O)Nc1cc(Cl)ccc1Cl	i	1.5
O=C(Nc1nc(-c2ccccc2)cs1)c1ccc(S(=O)(=O)N2CCc3ccccc32)cc1	i	0.04
Cc1[nH]c2ccccc2c1N=Nc1ccc(F)cc1	i	-0.66
Cn1c(SCC(=O)N2CCCCC2)nnc1-c1ccc(S(=O)(=O)N2CCOCC2)cc1	i	0.03
Cc1cc(-c2ccccc2)nc(N(C)NC(=O)c2cccc(C(F)(F)F)c2)c1S(C)(=O)=O	i	-1.1
O=C(CSc1nc(-c2ccccc2)cc(=O)[nH]1)N1CCOCC1	i	0.76
N#Cc1ccsc1NC(=O)CN1CCN(c2ccccc2)CC1	i	0.65
O=C(c1cc(C2CC2)on1)N1CCN(C(c2ccccc2)c2ccccc2)CC1	i	2.8

Given field by field: part of the list above.
CCOC(=O)c1ccc(NC(=O)CN2C(=O)C(CC)SC(CC)C2=O)cc1 (stereo not drawn)
  KCNQ2 block: i | KCNQ2 block baseline: -1.1
Cc1cccn2c(=O)c3cc(C(=O)N4CC(C)CC(C)C4)sc3nc12 (stereo not drawn)
  KCNQ2 block: i | KCNQ2 block baseline: 0.08
CCOC(=O)C(C)Sc1nc(-c2ccccc2)nc2ccccc12 (stereo not drawn)
  KCNQ2 block: i | KCNQ2 block baseline: -1.5
O=C(/C=C\c1cn(-c2ccccc2)nc1-c1ccc2c(c1)OCCO2)N1CCOCC1
  KCNQ2 block: i | KCNQ2 block baseline: -0.9

(next part)
SMILES	KCNQ2 block	KCNQ2 block baseline
COc1ccc(OC)c2sc(NC(=O)c3ccc(Cl)s3)nc12	i	0.89
COc1ccccc1NC(=S)N(CCCN1CCOCC1)Cc1cccs1	i	-0.05
Cc1ccc(NC(=O)CCC(=O)N/N=C/c2cccs2)cc1	i	-0.89
Cc1cccc(N=Nc2cnc(N)s2)c1	i	-1.3
Cc1cccc(CN2C(=O)c3ccccc3Sc3ccc(C(=O)NCCN4CCOCC4)cc32)c1	i	0.66
O=C(CCCn1c(=S)[nH]c2ccccc2c1=O)NC1CCCCC1	i	-0.1
COc1ccc(C(C)(C)NC(=O)C2CCC(=O)N(C3CC3)C2)cc1OC (stereo not drawn)	i	0.26
COc1ccc(OC)c(NC(=O)c2cccc3c2C(=O)N(C2CCCCC2)C3)c1	i	1.6
COC(=O)CC1C(=O)NCCN1C(=O)NC1CCCCC1 (stereo not drawn)	i	-0.67
Cc1ccc(OCCN2CCCC2)cc1	i	0.98
NC1=NC(=O)CC(C(=O)NCCc2ccccc2)S1 (stereo not drawn)	i	-0.17
Cc1cc(NCCCN)nc(-c2ccccc2O)n1	i	2.4
CCOC(=O)c1c(NC(=O)CSc2nnc(C)s2)sc2c1CCCCC2	i	-0.1
CCC(C)c1ccc(NC(=S)Nc2ccc(OC)cc2)cc1 (stereo not drawn)	i	-0.39
O=C(CSc1ccc(Cl)cc1)Nc1ccccc1N1CCN(C(=O)c2ccccc2)CC1	i	0.7
Cc1ccc(-n2c(SCC(N)=O)nnc2-c2ccc(S(=O)(=O)N3CCCCC3)cc2)c(C)c1	i	0.14
CCCc1cc2c(cc1NS(=O)(=O)c1ccc(CCNC(C)=O)cc1)OCO2	i	0.81
Nc1ccc(C(=O)N2CCN(S(=O)(=O)c3ccc(Cl)cc3)CC2)cc1[N+](=O)[O-]	i	1.6
COc1ccc(/C=C/C=C2\N=C(SC)SC2=O)cc1	i	0.89
COc1cccc(OCC(=O)NNC(=O)CCc2ccccc2)c1	i	2.3
Cc1ccc(C)c(N2CCN(C(=O)c3ccc(CSc4nc5ccncc5[nH]4)cc3)CC2)c1	i	-0.45
Cc1cc(NC(=O)CSc2nc(N)c(NC(=O)c3ccccc3F)c(=O)[nH]2)no1	i	0.53
CC1CCCCN1C(=O)CSc1nc2ccsc2c(=O)n1Cc1ccccn1 (stereo not drawn)	i	-2.1
O=C(Nc1ccc(Br)c2cccnc12)c1ccc(Cn2cc([N+](=O)[O-])cn2)o1	i	0.53
O=C(/C=C\c1ccc2c(c1)OCO2)Nc1c2c(nn1-c1ccc(Cl)cc1)CSC2	i	-1.1
Further results follow:
SMILES	KCNQ2 block	KCNQ2 block baseline
COc1cc2ccccc2cc1C(=O)Nc1ccc(CN2CCOCC2)cc1	i	-1.9
O=C(c1ccncc1)N(c1ccc2oc3c(c2c1)CCCC3)S(=O)(=O)c1cccc([N+](=O)[O-])c1	i	0.79
Cc1c(O)c(CN2CCCC2)cc2c1oc(=O)c1ccccc12	i	0.08
Cc1cc(C)cc(NC(=O)C(=S)NCc2ccccc2)c1	i	0.02
O=C(CN1CCSCC1)N/N=C/c1ccc(F)c(F)c1	i	1.6
O=C(Nc1ccccc1-c1nnn(CC(=O)N2CCCc3ccccc32)n1)c1cccc(Cl)c1	i	-0.24
CCNc1nc(NCC)nc(N/N=C/c2ccc(Br)cc2)n1	i	-0.09
Cc1cc(C)c2c(=O)n(CC(=O)Nc3ccc(Br)c(C)c3)sc2n1	i	0.53
COc1ccc(OC)c(/C=C2\N=C(c3ccccc3)OC2=O)c1	i	16
CC(C)(C)C(=O)Nc1ccc(N=Nc2ccccc2)cc1	i	-0.42
O=C(NO)c1ccccc1O	i	3.2
CCn1ccnc1CN(C)Cc1cn[nH]c1-c1ccc(OC)c(F)c1	i	0.88
CCn1c(SCC(=O)OCc2ccccc2)nc2c1c(=O)n(C)c(=O)n2C	i	0.81
O/C(=C\c1nc2ccccc2[nH]1)c1cccs1	i	-0.97
Cc1nc(-c2cccs2)sc1C(=O)O	i	1.4
O=C(CC(=O)NN=C1CCCC1)NCCc1ccccc1	i	2.2
Cc1ccc(OCC(=O)N2CCN(c3nnc(-c4ccc(C)cc4)c4ccccc34)CC2)cc1	-7.7*	-0.55*
O=C(NC(=S)Nc1ccc2oc(-c3cccnc3)nc2c1)c1cccc(Cl)c1	i	-1.8
COc1ccccc1OCCSc1nc2ccccc2n1CC(N)=O	i	0.89
O=C(Nc1nccs1)c1cnccn1	i	-1.5
Cn1c(=O)c(-c2ccccc2)nn2c3ccccc3nc12	i	-0.17
COc1ccc2[nH]c3c(=O)n(CCCC(=O)NC4CCC(C)CC4)c(=S)[nH]c3c2c1 (stereo not drawn)	i	-0.23
COc1ccc(C(CNC(=O)Cc2ccccc2Cl)N2CCCCC2)cc1 (stereo not drawn)	i	-1.9
O=C(Cc1ccccc1)Nc1cc(C(=O)c2ccccc2)ccc1N1CCOCC1	i	-0.06
CC(=O)Nc1ccc(S(=O)(=O)N2CCC(C(=O)NCCC(=O)NCc3ccncc3)CC2)cc1	i	-0.34

A draw from above in order of molecular weight, highest first:
SMILES	KCNQ2 block	KCNQ2 block baseline
CCn1c(SCC(=O)OCc2ccccc2)nc2c1c(=O)n(C)c(=O)n2C	i	0.81
CC(C)(C)C(=O)Nc1ccc(N=Nc2ccccc2)cc1	i	-0.42
O/C(=C\c1nc2ccccc2[nH]1)c1cccs1	i	-0.97

Remaining list, next part.
SMILES	KCNQ2 block	KCNQ2 block baseline
CCN(CC)CCSc1nc(O)c(-c2ccccc2)c(=O)n1-c1ccccc1	i	0.96
COc1ccc(-c2csc3ncnc(N4CCN(S(=O)(=O)c5cccc(C(F)(F)F)c5)CC4)c23)cc1	i	-0.91
CCOC(=O)CSc1nnc([C@@H](NC(=O)OC(C)(C)C)C(C)C)o1	i	-2.4
COc1cccc(N(C(=O)CS(=O)CC(=O)Nc2ccc(F)cc2)C(C(=O)NC2CCCCC2)c2cccs2)c1 (stereo not drawn)	i	-1.1
Cc1nc2ccccc2n1S(=O)(=O)c1ccc(F)cc1	i	0.68
O=C(C1=C[C@H](C2CCCCC2)C[C@H](OCCCCO)O1)N1CCN(Cc2ccc3c(c2)OCO3)CC1	i	-0.51
Cc1ccc(S(=O)(=O)N2CCCC2CNC(=O)c2ccc(F)c(F)c2)cc1 (stereo not drawn)	i	0.03
CCN(c1ccccc1C)S(=O)(=O)c1cc2c3c(c1)CCN3C(=O)CC2	i	-2.1
COC(=O)C(CC(=O)c1ccc(C)cc1)n1nc(C)cc1C (stereo not drawn)	i	0.67
COc1cc2c(=O)n(Cc3ccccc3)c(=O)n(CC(=O)NCCc3ccccc3)c2cc1OC	i	1.1
Cc1ccc(S(=O)(=O)Nc2ccc(OCC(=O)N3CCOCC3)cc2)c(C)c1NS(C)(=O)=O	i	0.83
Cc1ccc2c(c1)c1c(n2CC(O)CNC2CCCCC2)CCCC1 (stereo not drawn)	i	1.3
CC(C)(C)c1ccc(C(=O)CSc2nc3ccccc3c(=O)[nH]2)cc1	i	4.5
CCOc1ccc(S(=O)(=O)N2CCN(c3ccccn3)CC2)cc1	i	1.6
O=C(Nc1cccc(Cl)c1)OCc1ccccn1	i	-0.12
CC(=O)O[C@H]1CC[C@@]2(C)C(CCC3C2CC[C@]2(C)OC(=O)CCC32)C1 (stereo partly drawn)	i	-0.1
C=CCOc1ccc(/C(CC)=N/O)c(OC)c1	i	-3.2
Cc1cc(C(=O)NC(=S)Nc2ccccc2N2CCOCC2)ccc1[N+](=O)[O-]	i	-1.4
CCCCC1(CCCC)NC(=S)N(Nc2ccc(C)cc2)C1=O	i	-1.3
FC(F)(F)c1ccc(Cl)c(NC(=S)NC2CC2)c1	i	1.3
Cc1ccccc1NC(=O)c1cnn(-c2ccccc2)c1NC(=O)c1ccco1	i	1.6
Cc1ccc(Nc2ncnc3sccc23)c(C)c1	i	-0.94
COCCNC(=O)CN(CCc1ccccc1)S(=O)(=O)c1ccc(Br)cc1	i	0.24
COC(=O)COc1ccc(S(=O)(=O)N2CCN(c3ccccc3F)CC2)cc1C	i	-0.38
Cc1ccc(OCC(O)CNC(=O)c2ccccc2C(=O)O)cc1 (stereo not drawn)	i	4.4

Part of the list above, with bars between the fields:
compound | KCNQ2 block | KCNQ2 block baseline
COc1cccc(N(C(=O)CS(=O)CC(=O)Nc2ccc(F)cc2)C(C(=O)NC2CCCCC2)c2cccs2)c1 (stereo not drawn) | i | -1.1
CCN(c1ccccc1C)S(=O)(=O)c1cc2c3c(c1)CCN3C(=O)CC2 | i | -2.1
CCOC(=O)CSc1nnc([C@@H](NC(=O)OC(C)(C)C)C(C)C)o1 | i | -2.4
Cc1ccc(OCC(O)CNC(=O)c2ccccc2C(=O)O)cc1 (stereo not drawn) | i | 4.4

Next structures:
SMILES	KCNQ2 block	KCNQ2 block baseline
COC(=O)c1ccc(CN2CCN(C3CCCC3)C(CCO)C2)cc1 (stereo not drawn)	i	2.8
Cc1c(NC(=O)OCCNC(=O)COc2ccc(Cl)cc2Cl)sc(=S)n1C	i	-0.66
Cc1cc(Oc2ccc(N)cn2)ccc1Cl	i	-0.95
Cc1ccc(-c2noc(CCC(N)=O)n2)cc1	i	-0.01
Cc1cccc(NC(=O)Cn2cc(C(=O)C3CC3)c3ccccc32)c1	i	0.22
CSc1ccccc1NC(=S)Nc1ccc(S(N)(=O)=O)cc1	i	0.2
CCOc1cc(C(=O)OCC(=O)c2c(N)n(C)c(=O)n(C)c2=O)cc(OCC)c1OCC	i	-0.85
Cc1cccc(C)c1Nc1nnc(SCc2nc3ccccc3c(=O)[nH]2)s1	i	1.1
COC(=O)[C@@H]1C[C@@]2(O)[C@H](O)[C@H](O)[C@H](O)C[C@H]2N1CC1CC1	i	1.8
CC1(c2ccccc2)CC(C)(C)N(C(=O)C2CCCO2)c2ccccc21 (stereo not drawn)	i	-1.6
CCCCc1ccc(NC(=S)NCCN2CCOCC2)cc1	i	-2.9
O=C(NC(=S)Nc1ccc(S(=O)(=O)Nc2nccs2)cc1)c1ccc(F)cc1	i	-0.04
CCOc1ccccc1NC(=O)c1cc(SC)ccc1Cl	i	0.91
Cc1c(C(=O)N2CCN(C)CC2)oc2ccc(Br)cc12	i	1.6
O=C(CCn1c(=O)oc2ccccc21)Nc1ccc(C(=O)O)cc1	i	-1.6
Cc1c(Cl)c(C(=O)N2CCCCCC2)nn1C	i	1.7
FC(F)Oc1ccc(NC(=S)NN2CCOCC2)cc1	i	-0.46
Nc1nc(SCC(=O)N2CCCCC2)[nH]c(=O)c1NC(=O)c1cccs1	i	-0.32
COc1ccc(C(=O)Nc2ccc(O)c3ccccc23)cc1	i	0.23
CCC1(c2cccc(Cl)c2)NC(=O)N(Cc2cc(C(=O)OC)c(C)o2)C1=O (stereo not drawn)	i	1.6
CCC(Sc1nc(C)cc(=O)[nH]1)C(=O)Nc1nnc(C)s1 (stereo not drawn)	i	0.24
COc1cc(C(=O)NC(=S)N(C)Cc2ccccc2)cc(OC)c1OC	i	-0.96
O=C(NCc1ccc2c(c1)OCO2)c1ccncc1	i	2.7

Screens (PubChem)
